Screening data deposited in PubChem BioAssay by Broad Institute.
FGF22 binding = FGF22 (human) thermal shift binding; recombinant FGF22 thermal shift, SYPRO orange fluorescence; percent of sucrose octasulfate shift, DMSO zero; calls only at 9.99 µM; hit rate 1.5% among 340,000; AID 651658;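 active means melting point raised past a set limit in the mean and every replicate; three in four hits are not shown here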
Target sequence (Q9HCT0 whole entry, looked up): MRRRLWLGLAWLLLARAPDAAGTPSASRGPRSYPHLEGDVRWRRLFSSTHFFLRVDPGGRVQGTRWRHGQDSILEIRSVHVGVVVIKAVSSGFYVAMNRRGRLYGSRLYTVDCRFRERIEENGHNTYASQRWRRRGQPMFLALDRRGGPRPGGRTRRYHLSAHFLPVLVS
AF4-AF9 inh = inhibitors of human MLL-AF4/AF9 interaction; AlphaScreen, biotin-AF4 peptide binding to FLAG-AF9; inhibition, % at 10 µM; hit rate 0.47% among 350,000;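 active means every replicate reaching a set inhibition limit, whatever the replicate mean, cut at about 25% in these data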;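 further: 0% = plate neutral control median and 100% = total signal loss; the record names both 10 and 1 µM as test concentration; the first replicate is given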
Target sequence (P42568 whole entry, looked up): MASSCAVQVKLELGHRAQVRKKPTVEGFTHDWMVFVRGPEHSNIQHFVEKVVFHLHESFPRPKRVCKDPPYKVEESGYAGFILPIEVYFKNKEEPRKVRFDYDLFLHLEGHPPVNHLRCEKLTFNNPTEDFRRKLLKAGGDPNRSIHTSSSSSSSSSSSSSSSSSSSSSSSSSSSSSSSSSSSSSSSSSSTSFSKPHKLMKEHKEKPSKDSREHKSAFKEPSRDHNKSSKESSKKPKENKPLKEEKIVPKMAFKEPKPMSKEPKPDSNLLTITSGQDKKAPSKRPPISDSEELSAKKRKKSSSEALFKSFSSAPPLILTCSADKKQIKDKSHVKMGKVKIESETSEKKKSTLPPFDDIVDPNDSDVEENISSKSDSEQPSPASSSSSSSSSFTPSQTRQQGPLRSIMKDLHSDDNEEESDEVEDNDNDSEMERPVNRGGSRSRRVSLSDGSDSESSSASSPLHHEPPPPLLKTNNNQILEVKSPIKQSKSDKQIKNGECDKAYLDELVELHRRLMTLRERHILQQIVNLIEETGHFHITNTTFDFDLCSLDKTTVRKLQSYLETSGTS
The depositor's hits bear a star; i = inactive; x = no result given. An excerpt; rates above refer to the full screens.

SMILES	FGF22 binding	AF4-AF9 inh
CN(C)C(=O)c1ccc(-c2ccc([C@H]3[C@@H](CO)N4CCCCN(C(=O)C5CCCC5)C[C@H]34)cc2)cc1	i	-3.4
C[C@H](CO)N1C[C@H](C)[C@H](CN(C)C(=O)c2ccncc2)Oc2cc(C#Cc3ccncc3)ccc2S1(=O)=O	i	-6.0
CC(=O)N1[C@H](CO)[C@H](c2ccccc2)[C@@H]1CNC(=O)CN1CCOCC1	i	-2.6
C[C@H](CO)N1C[C@H](C)[C@H](CN(C)S(=O)(=O)c2ccc(C#N)cc2)Oc2ncc(C#Cc3cccc(F)c3)cc2C1=O	i	0.3
CO[C@H]1CN(C)C(=O)c2cc(NC(=O)Nc3cccc(F)c3)ccc2OC[C@@H](C)NC[C@@H]1C	i	0.9
COCC#Cc1cnc2c(c1)C(=O)N([C@@H](C)CO)C[C@H](C)[C@@H](CN(C)C(=O)c1cccc(F)c1)O2	i	-3.3
Cc1noc(C)c1S(=O)(=O)Nc1ccc2c(c1)C(=O)N([C@@H](C)CO)C[C@H](C)[C@H](CN(C)C(=O)Nc1ccccc1)OCCCC[C@H](C)O2	i	2.9
O=C(C[C@H]1C[C@@H]2c3cc(NC(=O)c4cccnc4)ccc3O[C@@H]2[C@@H](CO)O1)NCCN1CCCCC1	i	-11
CO[C@@H]1CN(C)C(=O)c2ccc(NC(=O)c3cnccn3)cc2OC[C@@H](C)N(CC2CC2)C[C@@H]1C	i	-3.5
C[C@@H]1CN([C@H](C)CO)S(=O)(=O)c2ccc(-c3ccncc3)cc2O[C@H]1CN(C)Cc1ccc(Oc2ccccc2)cc1	i	-27
CO[C@H]1CN(C)C(=O)c2cc(NC(=O)C3CC3)ccc2OC[C@@H](C)N(C(=O)NC(C)C)C[C@H]1C	i	-0.5
COc1ccc(S(=O)(=O)N(C)C[C@@H]2Oc3ccc(NC(=O)Nc4ccc(C(F)(F)F)cc4)cc3CC(=O)N([C@@H](C)CO)C[C@@H]2C)cc1	i	-0.9
CC(C)NC(=O)Nc1ccc2c(c1)C(=O)N([C@@H](C)CO)C[C@@H](C)[C@H](CN(C)C(=O)NC(C)C)OCCCC[C@H](C)O2	i	-5.3
C[C@@H]1CN([C@@H](C)CO)C(=O)CCCn2cc(nn2)CO[C@@H]1CN(C)Cc1ccc(C(=O)O)cc1	i	-3.5
CCCC#Cc1cnc2c(c1)C(=O)N([C@H](C)CO)C[C@H](C)[C@@H](CN(C)C(=O)Nc1ccccc1OC)O2	i	-2.9
COc1ccc(CN(C)C[C@H]2Oc3ccc(NS(=O)(=O)c4c(C)noc4C)cc3CC(=O)N([C@@H](C)CO)C[C@H]2C)cc1	i	-3.1
CN1CCN(C(=O)C[C@H]2CC[C@H]3[C@@H](COc4ccc(NC(=O)C5CC5)cc4C(=O)N3C)O2)CC1	i	1.0
CO[C@@H]1CN(C)C(=O)c2cc(NC(C)=O)ccc2OC[C@@H](C)N(C(=O)c2ccccc2)C[C@H]1C	i	1.6
CC(C)NC(=O)N1[C@@H]2c3cccc(=O)n3C[C@@H]2[C@@H](CO)[C@@H]1C(=O)N1CCc2ccccc2C1	i	0.7
COc1ccc(CN(C)C[C@H]2Oc3ccc(NS(=O)(=O)c4ccc(Cl)cc4)cc3CC(=O)N([C@H](C)CO)C[C@@H]2C)cc1	i	3.5
C[C@H](CO)N1C[C@H](C)[C@@H](CN(C)Cc2ccc3c(c2)OCO3)Oc2ccc(NS(=O)(=O)c3ccc(Cl)cc3)cc2C1=O	i	3.3
CN(C)CCCN1C(=O)[C@@]2(Cc3ccccc31)c1ccccc1C(=O)N(Cc1ccccc1Cl)[C@H]2c1ccc(CO)cc1	i	-3.9
C[C@H]1CN([C@@H](C)CO)S(=O)(=O)c2ccc(-c3ccc(C(=O)N(C)C)cc3)cc2O[C@@H]1CN(C)C(=O)Nc1ccccc1F	i	-0.3
CO[C@@H]1CN(C)C(=O)c2cc(NC(=O)C3CCC3)ccc2OC[C@@H](C)N(CC2CCCCC2)C[C@@H]1C	i	1.0
Cc1cccc(-c2ccccc2[C@H]2[C@@H](C#N)N(c3ncc(-c4ccccc4)s3)[C@H]2CO)c1	i	-0.5

Rewritten with bars between the fields: part of the list above.
SMILES | FGF22 binding | AF4-AF9 inh
CO[C@@H]1CN(C)C(=O)c2ccc(NC(=O)c3cnccn3)cc2OC[C@@H](C)N(CC2CC2)C[C@@H]1C | i | -3.5
C[C@@H]1CN([C@H](C)CO)S(=O)(=O)c2ccc(-c3ccncc3)cc2O[C@H]1CN(C)Cc1ccc(Oc2ccccc2)cc1 | i | -27
CO[C@H]1CN(C)C(=O)c2cc(NC(=O)C3CC3)ccc2OC[C@@H](C)N(C(=O)NC(C)C)C[C@H]1C | i | -0.5
COc1ccc(S(=O)(=O)N(C)C[C@@H]2Oc3ccc(NC(=O)Nc4ccc(C(F)(F)F)cc4)cc3CC(=O)N([C@@H](C)CO)C[C@@H]2C)cc1 | i | -0.9
CC(C)NC(=O)Nc1ccc2c(c1)C(=O)N([C@@H](C)CO)C[C@@H](C)[C@H](CN(C)C(=O)NC(C)C)OCCCC[C@H](C)O2 | i | -5.3
C[C@@H]1CN([C@@H](C)CO)C(=O)CCCn2cc(nn2)CO[C@@H]1CN(C)Cc1ccc(C(=O)O)cc1 | i | -3.5
CCCC#Cc1cnc2c(c1)C(=O)N([C@H](C)CO)C[C@H](C)[C@@H](CN(C)C(=O)Nc1ccccc1OC)O2 | i | -2.9

New compounds follow
SMILES	FGF22 binding	AF4-AF9 inh
COC(=O)C1=C(C)N(Cc2ccc(C(F)(F)F)cc2)C(=NCC2CC2)NC1c1ccccc1 (stereo not given)	x	6.9
C[C@H](CO)N1C[C@H](C)[C@H](CN(C)C(=O)Nc2ccc(F)cc2)OCCCC[C@H](C)Oc2ccc(NC(=O)CCC(F)(F)F)cc2C1=O	i	-2.7
C/C=C/c1ccc([C@@H]2[C@H](CO)N(S(C)(=O)=O)[C@H]2CN(CC)C(C)=O)cc1	i	0.0
COc1ccc(CN(C)C[C@@H]2Oc3ccc(NC(=O)Nc4ccc(OC)cc4)cc3C(=O)N([C@H](C)CO)C[C@@H]2C)cc1	i	4.2
COC(=O)C[C@H]1C[C@H]2c3cc(NC(=O)Nc4ccccc4)ccc3O[C@H]2[C@H](CO)O1	i	0.4
CCNC(=O)C[C@@H]1C=C[C@@H](NC(=O)C2CCOCC2)[C@H](CO)O1	i	-1.7
CC(C)(C)n1nc(C2CC2)c(Br)c1NC(=O)c1ccccc1Cl	i	-2.7
CNC[C@H]1OCCCC[C@H](C)Oc2ccc(NC(=O)Nc3cccc4ccccc34)cc2C(=O)N([C@@H](C)CO)C[C@@H]1C	i	2.3
C[C@H]1CN([C@@H](C)CO)C(=O)c2cccc(NS(=O)(=O)c3ccc(Cl)cc3)c2O[C@H]1CN(C)S(=O)(=O)c1ccccc1	i	0.3
C[C@@H]1CN([C@@H](C)CO)S(=O)(=O)c2ccc(C#Cc3ccccc3F)cc2O[C@H]1CN(C)C	i	11
CCCN(C)C[C@@H]1Oc2ncc(C#Cc3cccc(OC)c3)cc2C(=O)N([C@H](C)CO)C[C@@H]1C	i	2.7
CCCC(=O)Nc1ccc2c(c1)OC[C@@H](C)N(C(C)=O)C[C@@H](C)[C@@H](OC)CN(C)C2=O	i	0.1
CNC[C@@H]1Oc2ccc(N(C)C)cc2CC(=O)N([C@H](C)CO)C[C@H]1C	i	-1.7
C[C@H](CO)N1C[C@H](C)[C@@H](CN(C)Cc2ccc(C(=O)O)cc2)Oc2c(NC(=O)Nc3cccc4ccccc34)cccc2C1=O	i	8.0
C[C@@H]1CN([C@@H](C)CO)C(=O)c2cc(NC(=O)c3ccncc3)ccc2O[C@@H]1CN(C)Cc1ccc(C(=O)Nc2ccccc2N)cc1	i	6.5
O=C(CCN1CCCCC1)NCC[C@H]1CC[C@@H](NC(=O)C2CC2)[C@@H](CO)O1	i	-2.9
COc1ccccc1-c1cnc2c(c1)C(=O)N([C@H](C)CO)C[C@@H](C)[C@@H](CN(C)Cc1cccnc1)O2	i	-3.4
N#Cc1cccc(-c2ccc3c(c2)[C@H]2[C@H](CCN2S(=O)(=O)c2ccccc2)[C@H](CO)N3)c1	i	0.1
C[C@@H](NC(=O)C[C@@H]1CC[C@H]2[C@@H](COC[C@H](O)CN2Cc2ccc(C(F)(F)F)cc2)O1)c1ccccc1	i	4.1
C[C@@H]1CN([C@@H](C)CO)C(=O)c2cc(NS(=O)(=O)c3ccc(Cl)cc3)ccc2O[C@@H]1CN(C)CC1CCCCC1	i	0.6
COc1ccc2c3c([nH]c2c1)[C@H](CO)N(S(C)(=O)=O)CC31CCN(CC2CCOCC2)CC1	i	-2.1
O=C(C[C@H]1CC[C@@H]2[C@H](COC[C@@H](O)CN2S(=O)(=O)c2cccc(Cl)c2)O1)NC1CCC1	i	21
C[C@H](CO)N1C[C@H](C)[C@H](CN(C)Cc2ccc(-c3ccccc3)cc2)Oc2ccc(NC(=O)CCCCCC(=O)Nc3ccccc3N)cc2C1=O	i	-1.7
CN(C)C(=O)c1cccc(-c2ccc([C@H]3[C@@H](CO)N4CCCCN(CC5CCOCC5)C[C@H]34)cc2)c1	i	-6.1
Cc1ccc(S(=O)(=O)Nc2ccc3c(c2)C(=O)N([C@@H](C)CO)C[C@@H](C)[C@H](CN(C)C(=O)Nc2c(C)noc2C)OCCCC[C@@H](C)O3)cc1	i	-5.6

Carrying on:
SMILES	FGF22 binding	AF4-AF9 inh
O=C(CC1CC1)N[C@H]1CC[C@@H](CCNS(=O)(=O)c2ccc(Cl)cc2)O[C@@H]1CO	i	-1.4
CCNC(=O)C[C@@H]1CC[C@H]2[C@@H](COC[C@@H](O)CN2C(=O)c2cccnc2)O1	i	-0.8
C[C@@H]1CN([C@H](C)CO)C(=O)c2cccc(N(C)C)c2O[C@@H]1CN(C)C(=O)Nc1ccc2c(c1)OCO2	i	-2.4
C[C@@H]1CN([C@@H](C)CO)C(=O)c2cc(NS(=O)(=O)c3ccc(Cl)cc3)ccc2O[C@H]1CN(C)Cc1ccccc1	i	25*
COc1cccc(S(=O)(=O)N(C)C[C@@H]2Oc3cc(C4=CCCCC4)ccc3S(=O)(=O)N([C@@H](C)CO)C[C@H]2C)c1	i	2.3
COCC(=O)Nc1ccc2c(c1)C(=O)N(C)[C@H]1CC[C@@H](CC(=O)NCc3ccccc3F)O[C@H]1CO2	i	-11
CCC(=O)N1C[C@H]2[C@@H](c3ccccc31)[C@@H](CO)N2Cc1ccccc1OC	i	-2.3
C[C@@H]1CN([C@@H](C)CO)C(=O)c2cc(-c3cccc(C#N)c3)cnc2O[C@H]1CN(C)Cc1ccccc1	i	-0.1
C[C@H]1CN([C@@H](C)CO)C(=O)c2cc(/C=C/c3ccccc3)cnc2O[C@@H]1CN(C)C(=O)c1cccc(F)c1	i	8.4
O=C(C[C@@H]1CC[C@@H](NS(=O)(=O)c2ccccc2)[C@H](CO)O1)N1CCC(Cc2ccccc2)CC1	i	-2.7
O=C(C[C@@H]1C=C[C@H](NC(=O)Nc2cc(F)ccc2F)[C@H](CO)O1)NCc1ccc2c(c1)OCO2	i	-5.7
CC(C)C#Cc1ccc2c(c1)O[C@H](CN(C)C(=O)c1ccccc1)[C@@H](C)CN([C@@H](C)CO)S2(=O)=O	i	6.3
C[C@H]1CN([C@@H](C)CO)C(=O)c2ccccc2-c2ccccc2CO[C@@H]1CN(C)C(=O)Cc1ccccc1	i	-1.0
O=C(C[C@H]1CC[C@@H]2[C@H](COC[C@@H](O)CN2C(=O)Nc2ccc(C(F)(F)F)cc2)O1)NCC1CCCCC1	i	-1.9
COc1ccc2c3c([nH]c2c1)[C@H](CO)N(C(=O)c1ccccn1)CC31CN(C(=O)C2CC2)C1	i	2.6
COCC#Cc1cnc2c(c1)C(=O)N([C@@H](C)CO)C[C@@H](C)[C@@H](CN(C)C(=O)CCN1CCCCC1)O2	i	-3.2
C[C@@H]1CN([C@H](C)CO)S(=O)(=O)c2ccc(-c3cccnc3)cc2O[C@H]1CN(C)Cc1cncnc1	i	7.3
O=C(C[C@@H]1CC[C@@H]2[C@H](COC[C@H](O)CN2Cc2ccc(F)cc2)O1)NCc1ccncn1	i	-4.6
C[C@H]1CN([C@@H](C)CO)C(=O)Cc2cc(NS(=O)(=O)c3cn(C)cn3)ccc2O[C@@H]1CN(C)S(=O)(=O)c1ccccc1	i	-3.2
COc1ccccc1NC(=O)N1CCCCN2[C@H](CO)[C@@H](c3ccc(-c4ccccc4)cc3)[C@@H]2C1	i	-2.3
CCC(=O)N(C)C[C@@H]1Oc2ncc(C#Cc3ccccc3OC)cc2C(=O)N([C@H](C)CO)C[C@H]1C	i	0.1
CC(C)C#Cc1ccc2c(c1)O[C@H](CN(C)CC1CCOCC1)[C@H](C)CN([C@@H](C)CO)S2(=O)=O	i	1.3
C[C@H]1CN([C@@H](C)CO)C(=O)c2cc(NC(=O)c3ccncc3)ccc2O[C@@H]1CN(C)S(=O)(=O)c1ccc(F)cc1	i	-0.9
C[C@@H]1CN([C@H](C)CO)C(=O)c2cc(-c3ccccc3F)cnc2O[C@@H]1CN(C)C(=O)NC1CCCC1	i	-2.5
CCCC(=O)Nc1ccc2c(c1)C(=O)N(C)[C@H]1CC[C@H](CC(=O)NCc3ccccc3)O[C@H]1CO2	i	-0.8
CO[C@@H]1CN(C)C(=O)c2ccc(NC(=O)c3ccccc3)cc2OC[C@@H](C)N(CC2CC2)C[C@@H]1C	i	-1.4
CN(C)CC(=O)N1[C@H](C#N)[C@@H](c2ccc(C#CC3CC3)cc2)[C@H]1CO	i	0.9
CCCN(C)C[C@@H]1OCCCC[C@H](C)Oc2ccc(NC(=O)Nc3ccc(F)cc3)cc2C(=O)N([C@H](C)CO)C[C@@H]1C	i	5.7
C[C@@H]1Cn2cnc(C(=O)N(C)Cc3ccccc3)c2C(=O)N1	i	0.1
